Ecoli rRNA inh – inhibitors of bacterial rRNA selective over humanized ribosomes; AID 720706; GFP signal change (wild-type ribosome), % (test concentration not listed); E. coli WT GFP vs humanized-ribosome RFP mutants, fluorescence, 24 h; stronger effect = lower value; DMSO median 0, no signal -100; actives 1.6% (n = 350,000);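 active = significant combined selectivity score with lowered wild-type GFP, culture density cut under 30%, mutant RFP and density less affected; inactive = any of these conditions unmet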; note: one replicate is shown; some compounds called inactive have numbers as strong as hits
A1 inh – inhibitors of the anti-apoptotic protein A1, read as caspase activation; caspase activation, % (no concentration beside the values); MEF A1-2A-BIM cells, Caspase-Glo 3/7 luminescence, 3 h; percent of clofoctol response, vehicle zero; AID 2462; actives 0.066% (n = 330,000);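 active = over half of replicate activation scores above 10%, or exactly half above 10 with the replicate mean above 10; inconclusive = replicate mean below 10 yet half the replicates above 10; inactive = over half of replicates below 10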;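 note: wells of about 30 µL received 50 nL stock; many hits fall short of the cut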
Beta apoptosis – beta cell apoptosis inhibition. actives 0.8% (n = 300,000). AID 435005. INS-1E cytokine-induced death, ATP luminescence, 48 h; percent of positive-control rescue, neutral wells zero. protection from apoptosis, % (no concentration beside the values);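 active = all replicates at 75% or more, or half of them and the mean; inconclusive = half reach 75% but not the mean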;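 note: 0% = cytokine-treated negative control wells and 100% = positive control rescue; higher means more ATP so stronger rescue from cytokine killing; wells of about 40 µL received 100 nL stock; the first replicate is given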
LANA-H2B inh – blocks KSHV LANA binding to histone H2A/H2B | Q9QR71 | cell-free LANA-H2A/H2B peptide, fluorescence polarization | inhibition, % (concentration not given with the values) | actives 0.6% (n = 320,000); in the data active = inhibition mostly above about 10%, no sharp cut-off; inactive = mostly below about 6.7%;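 note: stock transfer was 7.5 nL into about 10 µL; 0% = median of vehicle wells and 100% = median of positive control wells; one replicate is shown; the record names a cut of 25% in any replicate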
Target sequence (Q9QR71 whole entry, looked up): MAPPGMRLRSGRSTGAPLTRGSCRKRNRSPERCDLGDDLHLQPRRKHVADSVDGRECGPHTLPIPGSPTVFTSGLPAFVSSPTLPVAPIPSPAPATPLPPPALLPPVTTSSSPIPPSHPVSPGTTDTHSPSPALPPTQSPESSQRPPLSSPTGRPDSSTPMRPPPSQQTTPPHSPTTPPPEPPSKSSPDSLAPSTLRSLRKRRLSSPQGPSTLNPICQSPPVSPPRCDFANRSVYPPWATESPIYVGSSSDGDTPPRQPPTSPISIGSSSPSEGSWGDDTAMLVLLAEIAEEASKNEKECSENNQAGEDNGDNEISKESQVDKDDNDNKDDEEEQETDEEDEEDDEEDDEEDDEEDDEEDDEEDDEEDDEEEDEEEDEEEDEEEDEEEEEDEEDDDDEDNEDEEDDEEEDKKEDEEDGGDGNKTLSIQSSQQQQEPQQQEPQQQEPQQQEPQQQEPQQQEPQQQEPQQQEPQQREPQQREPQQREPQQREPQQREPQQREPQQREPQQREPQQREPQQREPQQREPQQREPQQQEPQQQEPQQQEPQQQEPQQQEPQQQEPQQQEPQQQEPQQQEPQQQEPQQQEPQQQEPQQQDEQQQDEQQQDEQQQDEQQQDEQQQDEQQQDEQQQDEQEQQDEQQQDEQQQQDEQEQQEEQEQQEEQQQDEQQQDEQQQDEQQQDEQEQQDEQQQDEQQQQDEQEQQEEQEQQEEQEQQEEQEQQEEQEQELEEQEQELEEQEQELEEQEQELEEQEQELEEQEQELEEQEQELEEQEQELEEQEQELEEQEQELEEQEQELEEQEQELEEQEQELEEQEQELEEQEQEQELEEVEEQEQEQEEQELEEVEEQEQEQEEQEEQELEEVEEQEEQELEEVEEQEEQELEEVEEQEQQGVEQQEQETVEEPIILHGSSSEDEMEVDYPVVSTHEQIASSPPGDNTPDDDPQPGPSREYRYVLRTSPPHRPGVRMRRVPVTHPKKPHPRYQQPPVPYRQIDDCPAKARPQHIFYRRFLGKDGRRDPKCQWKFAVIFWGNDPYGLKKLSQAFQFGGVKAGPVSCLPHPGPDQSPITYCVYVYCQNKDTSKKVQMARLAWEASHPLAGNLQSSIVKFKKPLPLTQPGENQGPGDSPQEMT
Calb FLC – affects C. albicans growth with fluconazole | C. albicans CaCi-2 (fluconazole-resistant clinical isolate) + fluconazole, Alamar Blue growth, 48 h | growth inhibition, % (concentration not given with the values) | actives 0.57% (n = 300,000) | AID 1979;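 active = most replicates above 75%; inconclusive = exactly half above 75%; inactive = most below 75%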;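 note: all wells also contain fluconazole at 8 µg/ml as a sub-toxic cotreatment; 0% = median of DMSO wells and 100% = median of geldanamycin control wells; wells of about 8 µL received 7.5 nL stock; the first replicate is given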
ALR H2O2 inh – human ALR oxidase inhibition via reduced H2O2. purified ALR, DTT oxidation, H2O2 HRP-luminol luminescence. inhibition, % (concentration not given with the values). actives 3.8% (n = 290,000). AID 485317;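 active = mean and each replicate at 75% or more; inconclusive = only one of the two met; inactive = neither met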;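 note: stock transfer was 7.5 nL into about 7.5 µL; 0% = neutral wells and 100% = wells with inactivated enzyme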
Beta2AR agonist – human beta-2 adrenergic receptor agonism by FAP. Am2.2-beta2AR cells, FAP receptor internalization, flow cytometry; reference of the scale not given here. response, % (test concentration not listed). actives 0.43% (n = 340,000). AID 504454;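 active = response above a set limit, near 3 SD of response in nonfluorescent compounds, cut at about 42% in these data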;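 note: stock transfer was 100 nL into about 11 µL; a reference agonist was the positive control; negative values mostly stem from fluorescent compounds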
T cruzi repl – blocks replication of Trypanosoma cruzi; inhibition, % (no concentration beside the values); T. cruzi beta-gal in NIH3T3, luminescence, 90 h; actives 1.4% (n = 300,000); AID 1885;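 active = mean inhibition across valid replicates above about 55%, limit read from the data; inconclusive = mean below that limit but half or more replicates reach it; inactive = mean below it, under half of replicates reach it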;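 note: signal also drops with host cell toxicity which is not excluded here; 0% = plate median of DMSO wells and 100% = zero luminescence signal; higher percent means less beta-gal luminescence so fewer parasites; stock transfer was 50 nL into about 50 µL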
Ecoli rRNA inh OD600 – recorded beside Ecoli rRNA inh, whose call it bears; OD600 change, %; measured here: OD600 growth;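 optical density of the mix in the first replicate; 0 = DMSO median and -100 = no signal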
Ecoli rRNA inh RFP – second read-out of Ecoli rRNA inh, no call of its own (marks repeat the call); RFP signal change, %; measured here: RFP humanized mutant strains;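 first replicate; 0 = DMSO median and -100 = no signal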
Numbers without * were called inactive.

How did CCOc1ccc(/C=N/N2C(C)CCCC2C)cc1OC (centres undefined) do in these assays?
Ecoli rRNA inh: 0; A1 inh: -0.1; Beta apoptosis: -1; LANA-H2B inh: -2.1; Calb FLC: -6; Beta2AR agonist: 7; T cruzi repl: 19; Ecoli rRNA inh OD600: -1; Ecoli rRNA inh RFP: -1.7

How did C=CCSc1nc(C)c(CCC(C)C)c(=O)[nH]1 do in these assays?
Ecoli rRNA inh: 0; A1 inh: 0.9; Beta apoptosis: -5; LANA-H2B inh: -0.1; Calb FLC: 8; ALR H2O2 inh: -2; Beta2AR agonist: 2; T cruzi repl: 0; Ecoli rRNA inh OD600: -4; Ecoli rRNA inh RFP: 1.4

Results for O=C1c2ccccc2-c2onc3ccc(Oc4ccccc4)c1c23 ?
A1 inh: -0.3; LANA-H2B inh: 0.2; Calb FLC: -8; ALR H2O2 inh: -21; Beta2AR agonist: -111; T cruzi repl: 49

What do the screens show for `CCn1cc(C(=O)O)c(=O)c2cnc(N3CCN(C(=S)NC(=O)c4ccccc4)CC3)nc21`?
Ecoli rRNA inh: -47; A1 inh: 0.6; Beta apoptosis: -2; LANA-H2B inh: 14*; Calb FLC: -3; ALR H2O2 inh: 6; Beta2AR agonist: 16; T cruzi repl: 0; Ecoli rRNA inh OD600: -77; Ecoli rRNA inh RFP: -28

How did CN1CCCN(S(=O)(=O)c2ccc(O)c(C(=O)O)c2)CC1 do in these assays?
Ecoli rRNA inh: 2; A1 inh: 0.5; Beta apoptosis: -5; LANA-H2B inh: 7.8; Calb FLC: -6; Beta2AR agonist: -3; T cruzi repl: -4; Ecoli rRNA inh OD600: 3; Ecoli rRNA inh RFP: 0.0

Results for CCOC(=O)C1=C(C)NC(C)=C(C(=O)OCC)C1c1ccccn1 ?
Ecoli rRNA inh: 14; A1 inh: -1.9; Beta apoptosis: -2; LANA-H2B inh: -0.9; Calb FLC: 3; ALR H2O2 inh: 0; Beta2AR agonist: -5; T cruzi repl: -1; Ecoli rRNA inh OD600: 5; Ecoli rRNA inh RFP: 5.5

Results for Cc1ccc(-c2cc(C(=O)NCCc3ccc(S(N)(=O)=O)cc3)c3ccccc3n2)cc1 ?
Ecoli rRNA inh: 4; A1 inh: 0.4; Beta apoptosis: 3; LANA-H2B inh: -3.4; Calb FLC: 3; ALR H2O2 inh: -19; Beta2AR agonist: 2; T cruzi repl: -2; Ecoli rRNA inh OD600: 11; Ecoli rRNA inh RFP: 6.6

What do the screens show for `CCOc1ccccc1OCC(=O)NCCc1ccc(S(N)(=O)=O)cc1`?
Ecoli rRNA inh: 0; A1 inh: -0.2; Beta apoptosis: -2; LANA-H2B inh: -1.7; Calb FLC: -9; ALR H2O2 inh: 2; Beta2AR agonist: -3; T cruzi repl: -19; Ecoli rRNA inh OD600: -7; Ecoli rRNA inh RFP: -7.7

What do the screens show for `CN(C)c1ccc(/C=C/C(=O)c2cccc(Br)c2)cc1`?
A1 inh: 0.1; Beta apoptosis: -2; LANA-H2B inh: -24; Calb FLC: -23; ALR H2O2 inh: 4; Beta2AR agonist: -455; T cruzi repl: 33

What do the screens show for `COc1cc(C)ccc1OCc1cc(C(=O)N2CCN(C3CCCCC3)CC2)no1`?
Ecoli rRNA inh: -1; Calb FLC: -3; ALR H2O2 inh: -24; Beta2AR agonist: 3; T cruzi repl: 9; Ecoli rRNA inh OD600: -1; Ecoli rRNA inh RFP: -0.9

How did O=C(COc1ccccc1F)NC12CC3CC(CC(C3)C1)C2 do in these assays?
Ecoli rRNA inh: -7; A1 inh: 1.3; Beta apoptosis: 3; LANA-H2B inh: -7.4; Calb FLC: -11; ALR H2O2 inh: 2; Beta2AR agonist: -15; T cruzi repl: 19; Ecoli rRNA inh OD600: -29; Ecoli rRNA inh RFP: 1.1

What do the screens show for `COc1ccccc1NC(=O)CCCNC(=O)Cn1cnc2sc(C)c(C)c2c1=O`?
Ecoli rRNA inh: 6; A1 inh: 0.4; Beta apoptosis: 1; LANA-H2B inh: 7.7; Calb FLC: 8; ALR H2O2 inh: -3; Beta2AR agonist: -5; T cruzi repl: 3; Ecoli rRNA inh OD600: 6; Ecoli rRNA inh RFP: 0.5

What do the screens show for `Nc1cc(N)nc(SCC(=O)NNC(=O)Cc2ccccc2)n1`?
Ecoli rRNA inh: 12; A1 inh: -0.3; Beta apoptosis: -8; LANA-H2B inh: 1.7; Calb FLC: -18; ALR H2O2 inh: 40; Beta2AR agonist: 4; T cruzi repl: -10; Ecoli rRNA inh OD600: 1; Ecoli rRNA inh RFP: -2.7

What do the screens show for `COc1ccc(-c2cc3nc(C)cc(N)n3n2)cc1`?
A1 inh: -14; Beta apoptosis: 66; LANA-H2B inh: -1.8; Calb FLC: 27; ALR H2O2 inh: -4; Beta2AR agonist: -4; T cruzi repl: 4

How did COc1ccccc1NC(=O)CCn1cccc1 do in these assays?
A1 inh: 0.6; Beta apoptosis: -9; LANA-H2B inh: 8.4; Calb FLC: -3; ALR H2O2 inh: -5; Beta2AR agonist: -6; T cruzi repl: -13

Results for CC(C)(C)C(=O)N1CCN(c2ncccc2C(F)(F)F)CC1 ?
Ecoli rRNA inh: -12; A1 inh: inconclusive; Beta apoptosis: 0; LANA-H2B inh: 0.4; Calb FLC: -14; ALR H2O2 inh: -7; Beta2AR agonist: 2; T cruzi repl: 13; Ecoli rRNA inh OD600: -7; Ecoli rRNA inh RFP: -2.0

What do the screens show for `Cc1[nH]c2ccccc2c1C(=O)CN1CCSCC1`?
A1 inh: 0.7; Beta apoptosis: -1; LANA-H2B inh: 0.9; Calb FLC: -8; ALR H2O2 inh: 97*; Beta2AR agonist: -6; T cruzi repl: -11

How did Cc1cc(C(=O)CSc2nc(N)cc(=O)[nH]2)c(C)n1Cc1ccco1 do in these assays?
Ecoli rRNA inh: 7; A1 inh: 1.1; Beta apoptosis: 6; LANA-H2B inh: 0.3; Calb FLC: 4; Beta2AR agonist: 2; T cruzi repl: -7; Ecoli rRNA inh OD600: 4; Ecoli rRNA inh RFP: -4.6

How did COc1ccccc1NS(=O)(=O)c1cccc(C(=O)OCc2nc3ccccc3s2)c1 do in these assays?
A1 inh: 0.4; Beta apoptosis: -14; LANA-H2B inh: -5.1; Calb FLC: -3; ALR H2O2 inh: -5; Beta2AR agonist: -1; T cruzi repl: 12

Results for O=C1CSC(c2ccc([N+](=O)[O-])cc2)N1Cc1ccccc1 (centres undefined) ?
Ecoli rRNA inh: -4; A1 inh: 2.1; Beta apoptosis: 4; LANA-H2B inh: -2.2; Calb FLC: 0; ALR H2O2 inh: -14; Beta2AR agonist: 6; T cruzi repl: 2; Ecoli rRNA inh OD600: -1; Ecoli rRNA inh RFP: 1.9

What do the screens show for `OC(CNCc1ccccc1)(c1ccccc1)c1ccccc1`?
Ecoli rRNA inh: 0; A1 inh: 0.4; Beta apoptosis: -1; LANA-H2B inh: -5.0; Calb FLC: -9; ALR H2O2 inh: -1; Beta2AR agonist: -3; T cruzi repl: -3; Ecoli rRNA inh OD600: 4; Ecoli rRNA inh RFP: -2.3

Results for COc1ccc(C2=NN(C(=O)CCCC(=O)O)C(c3cccs3)C2)cc1OC (centres undefined) ?
Ecoli rRNA inh: 3; A1 inh: -0.4; LANA-H2B inh: 1.2; Calb FLC: 19; ALR H2O2 inh: -25; Beta2AR agonist: 1; T cruzi repl: -4; Ecoli rRNA inh OD600: 4; Ecoli rRNA inh RFP: 1.6

What do the screens show for `O=C(CSc1nnc(C2CC2)n1Cc1ccccc1)N1CCNC1=O`?
Ecoli rRNA inh: 2; A1 inh: -0.2; Beta apoptosis: -3; LANA-H2B inh: 1.7; ALR H2O2 inh: -4; Beta2AR agonist: -8; Ecoli rRNA inh OD600: 4; Ecoli rRNA inh RFP: -4.1

How did O=C(COC(=O)CC1CCS(=O)(=O)C1)Nc1ccc(F)cc1 (centres undefined) do in these assays?
Ecoli rRNA inh: 7; A1 inh: 0.2; Beta apoptosis: 2; LANA-H2B inh: 1.4; ALR H2O2 inh: -10; Beta2AR agonist: -2; Ecoli rRNA inh OD600: 14; Ecoli rRNA inh RFP: -0.5

How did CS(=O)(=O)c1cccc(C(=O)NCc2ccccc2)c1 do in these assays?
Ecoli rRNA inh: 15; A1 inh: 0.2; Beta apoptosis: -9; LANA-H2B inh: -2.0; Calb FLC: -4; ALR H2O2 inh: 7; Beta2AR agonist: 0; T cruzi repl: -8; Ecoli rRNA inh OD600: 5; Ecoli rRNA inh RFP: 3.1

What do the screens show for `CC(C)C[C@H](NC(=O)OC(C)(C)C)C(=O)N/N=C/C1=Cc2ccccc2OC1C` (some centres undefined)?
A1 inh: 0.2; Beta apoptosis: 19; LANA-H2B inh: -0.7; Calb FLC: 5; ALR H2O2 inh: -9; Beta2AR agonist: 3; T cruzi repl: 69*

What do the screens show for `CC1=C(C(=O)Nc2ccccn2)C(c2ccccc2Cl)NC(=S)N1` (centres undefined)?
Ecoli rRNA inh: 0; A1 inh: 1.9; Beta apoptosis: -5; LANA-H2B inh: 4.1; Calb FLC: 5; ALR H2O2 inh: 13; Beta2AR agonist: 4; T cruzi repl: -9; Ecoli rRNA inh OD600: 2; Ecoli rRNA inh RFP: -0.2

Results for O=C(CSc1nnc(NC(=O)C2CC2)s1)Nc1ccccc1 ?
Ecoli rRNA inh: 1; A1 inh: -0.7; LANA-H2B inh: 1.6; Calb FLC: -5; ALR H2O2 inh: -12; Beta2AR agonist: -12; T cruzi repl: 7; Ecoli rRNA inh OD600: 9; Ecoli rRNA inh RFP: -0.2

Results for Cc1ccc2cccc(OCC(=O)Nc3ccc4c(c3)OCO4)c2n1 ?
Ecoli rRNA inh: 6; A1 inh: -0.3; Beta apoptosis: 1; LANA-H2B inh: -1.6; Calb FLC: -2; Beta2AR agonist: -1; T cruzi repl: 5; Ecoli rRNA inh OD600: 3; Ecoli rRNA inh RFP: 0.8

Results for CCc1ccc(-c2csc3[n+]2CCN3C(C)=O)cc1 ?
Ecoli rRNA inh: 0; A1 inh: -1.6; Beta apoptosis: -10; LANA-H2B inh: -4.8; Calb FLC: -61; ALR H2O2 inh: 99*; Beta2AR agonist: -4; T cruzi repl: 49; Ecoli rRNA inh OD600: -3; Ecoli rRNA inh RFP: -10

Results for Cc1ccc(Cl)c(OCCN2CCc3ccccc3C2)c1 ?
Ecoli rRNA inh: -42; A1 inh: -1.0; LANA-H2B inh: -1.2; Calb FLC: -14; ALR H2O2 inh: -7; Beta2AR agonist: 6; T cruzi repl: 21; Ecoli rRNA inh OD600: -48; Ecoli rRNA inh RFP: -6.5

What do the screens show for `CCOC(=O)N1CCN(Cc2nc(N)nc(Nc3ccc(Cl)cc3)n2)CC1`?
Ecoli rRNA inh: -6; A1 inh: -0.4; Beta apoptosis: -4; LANA-H2B inh: -3.4; Calb FLC: 7; ALR H2O2 inh: 15; Beta2AR agonist: -6; T cruzi repl: -20; Ecoli rRNA inh OD600: -9; Ecoli rRNA inh RFP: 6.6

Assay outcomes (PubChem BioAssay)

Not all compounds are listed; the hit share may differ from the screen's.
